VACV Venus inh – vaccinia inhibition (Venus reporter). Vaccinia virus Venus reporter expression, fluorescence. Potency, µM (doses to about 36.5 µM), inactives show at the top dose activity change, negative = inhibition, usual class: inhibitors. 0.46% of 330,000 active; active means well fitted inhibition curve with a large enough effect; inconclusive means small, poorly fitted or top-dose-only effect; inactive means no such curve, though single readings can be large or run the other way; tested in A549 cells; also: nearly all actives have a fitted effect of over 30% in size; inactives centre near -10
Vaccinia mCherry – inhibitors of vaccinia virus infection (mCherry reporter signal); 0.63% of 310,000 active; Potency, µM (series often up to 36.5 µM), inactives show at the top dose activity change, negative = inhibition, hits mostly inhibitors; Vaccinia virus mCherry reporter infection, fluorescence; about a quarter of the inactives have no number; active = well fitted inhibition curve with a large enough effect; inconclusive = small, poorly fitted or top-dose-only effect; inactive = no such curve, though single readings can be large or run the other way; tested in A549 cells; also: nearly all actives have a fitted effect of over 35% in size; inactives centre near -10
Numbers without * were called inactive; i = inactive; ? = inconclusive; . = not tested or not shown; [ ] = another dose, or the depositor's remark. % is scaled to controls: 0 for no effect and ±100 for the full control effect; potency is read from the fitted curve at half-maximal effect.

SMILES	VACV Venus inh	Vaccinia mCherry
CN(C)CCNc1nc2c(c(=O)[nH]c(=O)n2C)n1CC(O)COc1ccc(Cl)cc1Cl (stereo unspecified)	-14%	-12%[1.46 µM]
COCCCNC(=O)c1ccc(Cn2c(=O)[nH]c3ccccc3c2=O)cc1	1%	-5%
Cc1ccc(NC(=O)C2CCCCC2C(=O)O)cc1Cl (stereo unspecified)	-7%	-9%
O=C(c1cc(Br)c(Br)s1)N1CCOCC1	-12%	i
CC(O)(c1ccc(F)c(F)c1)c1nc(-c2cccc(C(F)(F)F)c2)cs1 (stereo unspecified)	-14%	-15%
O=C(NCc1cccs1)C1CCN(S(=O)(=O)c2ccc3c(c2)OCCO3)CC1	-6%	i
O=C(CCNS(=O)(=O)c1ccc2nsnc2c1)N1CCN(c2ccncc2)CC1	-21%	i
Cn1cc(Cl)c(C(=O)NNC(=S)NC2CCCCC2)n1	-6%	-3%
CNC(=S)NNC(=O)c1ccc(=O)n(Cc2ccc(Cl)cc2Cl)c1	3%	i
COc1ccc(-n2c(SCCN(C)C)nc3ccccc3c2=O)cc1	-4%[7.34 µM]	i[7.34 µM]
Cc1cccc(Cn2c(=O)n3nc(-c4ccccc4)nc3c3ccccc32)c1	-26%	-27%
O=C(Nc1cc2c(cc1Cl)-c1ccc([N+](=O)[O-])cc1C2=NO)C(F)(F)F	8%	-9%
C/C(=N\NC(=O)c1ccc2ccccc2c1)c1cccs1	-12%	?
COc1ccc(C(=O)CSc2nc3ccccc3n2CC(=O)NC(C)(C)C)cc1	-5%	i
NCCCC[C@H]1CNC(=O)C(=O)N1CCC12CC3CC(CC(C3)C1)C2	-4%	i
Cc1ccccc1-c1noc(CSc2nnc(-c3ccncc3)n2-c2ccc(F)cc2)n1	-16%	-13%
Nc1nc(-c2ccccc2)cn1/N=C/c1ccccc1	13%	-15%
Cc1ccccc1CSc1ccc(-c2ccc3c(c2)OCO3)nn1	-2%	-3%
Cc1cncc(NCc2cccc(Cl)c2)n1	-2%	i
Oc1cccc(C(O)CNCc2ccc(OCc3ccc(Cl)cc3Cl)cc2)c1 (stereo unspecified)	-16%	?
Cc1cc(C)n(C(=O)Cn2nc(C)c(Br)c2C)n1	1%	-10%
COc1ccc(OC)c(C2C3=C(N=C4SCC(=O)N42)c2ccccc2CC3)c1 (stereo unspecified)	-9%	-8%[1.46 µM]
CN(C(=O)COC(=O)CSc1cc(Cl)ccc1Cl)c1c(N)n(Cc2ccccc2)c(=O)[nH]c1=O	-13%	i
CC(=O)NCCc1c(Cc2ccccc2)[nH]c2ccccc12	-12%	-2%
N/C(=N\OS(=O)(=O)c1cccc([N+](=O)[O-])c1)c1ccncc1	0%	-8%
SMILES	VACV Venus inh	Vaccinia mCherry
CC(C)C(=O)N1CCCC1(C)C(=O)NCc1ccccn1 (stereo unspecified)	11%	35%[activator]
O=C(O)C1C2C=CC(C2)C1C(=O)OCC1CCCO1 (stereo unspecified)	-1%	-15%
CCc1cc(C(=O)NC2CCCc3c2cnn3-c2cccc(C)c2C)n(C)n1 (stereo unspecified)	-13%	-27%
C/C(CCc1ccccc1)=N\NC(=S)NCCc1ccccc1	-10%	?
CCOc1nc(NCCC2=CCCCC2)nc(N2CCOCC2)n1	3%	?
N#C/C(=C\c1cccc(O)c1)C(=O)O	-4%	-7%
Cc1cc(C)cc(NC(=O)N2CCC(CN3CCOCC3)CC2)c1	-16%	-15%
CC1=C(C(=O)N(C(C)C)C(C)C)CC(CC(=O)NC2CC2)C(=O)N1CCC1=CCCCC1 (stereo unspecified)	0%	i
CC(C)NC(=O)C1(c2ccccc2)CCOCC1	-15%	.
Cc1cccnc1NC(=S)Nc1ccc(Br)cc1Cl	?	-7%
CC(NC(=O)CCn1c(=O)c2cccn2c2ccc(F)cc21)c1ccccc1 (stereo unspecified)	2%	-3%
CCN1C(=O)C(C)S/C1=N\S(=O)(=O)c1ccc(Cl)s1 (stereo unspecified)	-3%	.
C[C@H]1[C@H]2c3nc4ccccc4n3C[C@H]1ON2C1CCCCC1	-4%	i
CC(=O)c1cccc(-c2ccnc3c2CC(C(=O)Nc2cccc(N(C)C)c2)O3)c1 (stereo unspecified)	-21%	-9%
CSc1ccc(-c2nc(CN(C)C3CCOC3)c(C)o2)cc1 (stereo unspecified)	-12%	i
CC1Sc2ccc(C(=O)N3CCCC(C(F)(F)F)C3)cc2NC1=O (stereo unspecified)	-21%	-23%
Cn1cccc1/C=N/N1CCN(c2ccccc2)CC1	1%	0%
NC(=O)C1(N2CCCCC2)CCN(C(=O)Nc2ccc(Cl)c(Cl)c2)CC1	-8%	-13%
CSC(=NNC(=O)c1ccc(O)cc1)SC	-15%	.
O=C(Nc1ccccc1Cl)c1cc(C2CCCCN2C(=O)C2CCCCC2)on1 (stereo unspecified)	-18%	-12%
COc1cc(/C=C2\SC(=Nc3ccc(O)cc3)NC2=O)cc(OC)c1OC	-10%	-6%
O=C(NCCCCCCNC(=O)c1ccccc1O)c1ccccc1O	-19%	?
O=C(CC1Nc2cccc3cccc(c23)NC1=O)Nc1ccccc1 (stereo unspecified)	-18%	-26%
COc1ccc(S(=O)(=O)NCC(=O)N(CC(=O)NCc2ccco2)C2CCCC2)cc1	-7%	-12%
O=C(COc1ccc(Cl)cc1Cl)Nn1c(=S)[nH]c2ncccc2c1=O	-18%	-1%
SMILES	VACV Venus inh	Vaccinia mCherry
CC(C)OCCCN1C(=O)c2[nH]nc(-c3ccccc3O)c2C1c1ccccc1F (stereo unspecified)	-27%	-25%
O=C(NC1CCCC1)C(c1ccncc1)N(C(=O)c1csnn1)c1cccc(F)c1 (stereo unspecified)	-7%	-3%
Cc1cc(CN(C)Cc2c(C(=O)N3CCCCCCC3)nc3ccc(Cl)cn23)n[nH]1	-19%	-30%
Cn1ncc2c(NCc3ccco3)ncnc21	-11%	-15%
COC(=O)[C@@]1(Cc2ccc(OC)cc2)[C@H]2c3cc(C(=O)N4CCCC4)n(CCSCCO)c3C[C@H]2CN1C(=O)c1ccccc1	-17%	-1%
COc1cccc(C(=O)Nc2cc(-c3ccccc3)nn2-c2ccccc2)c1	0%	-13%
CCCCSc1nnc(-c2ccccc2NC(C)=O)c(=O)[nH]1	-15%	-15%
Cn1c(O)c(N=NC(=O)Cn2c(C(F)(F)F)nc3ccccc32)c2ccccc21	-2%	i
Cc1ccc(C)c(-n2[nH]c3c4c(ccc3c2=O)C(=O)c2ccccc2C4=O)c1	-1%	-4%
COc1ccc2nc(Nc3nc(-c4ccncc4)cs3)sc2c1	-12%	?
Cc1ccc(O)c(C(=O)c2cnc(/N=C(\N)N(C)C)nc2)c1	-10%	-6%
Cc1nc(N2CCOCC2)c2c(C(=O)Nc3cccc(C(F)(F)F)c3)c(C)oc2n1	-12%	i
CN(C(=O)CSc1nnc(CNC(=O)c2ccccc2)o1)c1ccccc1	-14%	-13%
COc1cccc(CN(C)C(=O)Cc2ccc(OC)c(S(=O)(=O)N3CCOCC3)c2)c1	-10%	i
CCc1ccc(CN(C)C(=O)c2cc(COc3ccc(OC)cc3Cl)on2)nc1	-17%	?
COc1cc(N=Nc2c(C)n(C)n(-c3ccccc3)c2=O)ccc1N	-5%	-14%
CC(C)(C)C(=O)COC(=O)C1=NN(c2ccccc2)C(=O)CC1	4%	2%
CC(=O)N1CC(=O)N(Cc2ccccc2)/C(=C/c2ccccc2)C1=O	-9%	-11%
CN(C)S(=O)(=O)c1cccc(NC(=O)CSc2nc3ccccc3[nH]2)c1	-15%	-11%
CCn1nc(C(=O)NCc2ccco2)c(Cl)c1Cl	-12%	-8%
Cc1ccc(NC(=O)Cn2c(=O)n(-c3ccc(C)cc3)c(=O)c3c2cnn3C)cc1	-1%	-1%
C/C(CC(=O)Nc1c(C)cc(C)cc1C)=N\NC(=O)c1cnccn1	-7%	i
CC1=C(C(=O)OC(C)C)C(c2cccnc2)C2=C(CC(C)(C)CC2=O)N1 (stereo unspecified)	-4%	-16%
C[C@@H](C(=O)Nc1ccc2c(c1)OCO2)n1c(=O)[nH]c2ccccc2c1=O	-17%	-25%
O=c1c2ccccc2cnn1Cc1ccc(Br)cc1F	-6%	-15%
SMILES	VACV Venus inh	Vaccinia mCherry
O=C(Cn1c(=O)n(-c2ccccc2)c(=O)c2c3c(sc21)CCCC3)Nc1ccccc1	-11%	-10%
O=C(c1ccc(Cl)c(S(=O)(=O)N2CCOCC2)c1)N(Cc1ccco1)Cc1cccs1	-12%	-22%
COc1ccc(NC(=O)CSC2=Nc3ccccc3C3=NC(CC(=O)NCc4ccco4)C(=O)N23)cc1 (stereo unspecified)	-15%	-13%
CCOC(=O)C1=C(C)NC(=O)NC1c1ccc(OC(C)C(=O)O)c(OC)c1 (stereo unspecified)	-9%	i
O=C(CCS(=O)(=O)c1nc(-c2cccs2)cc(C(F)(F)F)n1)Nc1ccc(Br)cc1	-16%[7.34 µM]	-12%[7.34 µM]
CC1CCCCN1CCCNC(=O)Cn1ncc2c3ccccc3n(Cc3ccccc3F)c2c1=O (stereo unspecified)	?	-28%
Cc1ccnc(-n2sc3ccccc3c2=O)n1	-4%	-9%
N#CC1(P(=O)(c2ccccc2)c2ccccc2)CC1	-13%	.
CCOC(=O)C1CCCN(C2CC(=O)N(c3ccc(C)c(C)c3)C2=O)C1 (stereo unspecified)	-14%	.
COc1ccccc1N1CCN(C(=O)c2cc(C(C)(C)C)oc2C)CC1	-14%	-31%
COc1ccc(NC(=O)c2cc3ccc4c5ccccc5[nH]c4c3cc2O)cc1	-7%	?
CCc1ccc(OS(=O)(=O)c2cn(C)c(=O)n(C)c2=O)cc1	-11%	i
CC(C)Sc1nnc(-c2ccc(S(=O)(=O)N3CCOCC3)cc2)n1C	-7%	2%
O=C(NCCCn1ccnc1)c1cccnc1	-13%	-10%
CCOc1cc(/C=N/NC(N)=O)ccc1OCC(=O)Nc1ccc(C)c(C)c1	10%	i
Cn1ncc([N+](=O)[O-])c1C(=O)Nc1ccccc1Cl	5%	i
CC(C)NC(=O)CN1C(=O)NC(CCc2ccccc2)C1=O (stereo unspecified)	0%	i
COC(=O)c1c(-c2cc(OC)cc(OC)c2)sc2ccc(OC)cc12	-16%	-16%
Cc1cc(C)c(C)c(C(=O)COC(=O)CNC(=O)CNC(=O)c2ccco2)c1C	-12%	-24%
CCOC(=O)c1cc(-c2ccccc2)sc1NC(=O)C(C)Sc1nnc(C)s1 (stereo unspecified)	-12%	-3%
CC1CCCCC1NC(=O)C(=O)NCC1CCCO1 (stereo unspecified)	-4%	.
CCC(CC)c1nn2c(=O)cc(COc3ccc(NC(=O)c4ccc(C)cc4)cc3)nc2s1	-14%	-17%
COc1ccc(-c2nc3c(c(=O)[nH]c(=O)n3Cc3ccccc3)n2CCO)cc1	-25%	?
COc1ccc(C(=O)NNC(=S)NC(=O)c2ccccc2[N+](=O)[O-])cc1	-15%	i
CSc1cccc(NC(=S)N(C(C)C)C(C)c2ccccn2)c1 (stereo unspecified)	-18%	-11%

A draw from above in order of molecular weight, low to high.
SMILES	VACV Venus inh	Vaccinia mCherry
O=C(NCCCn1ccnc1)c1cccnc1	-13%	-10%
CC1CCCCC1NC(=O)C(=O)NCC1CCCO1 (stereo unspecified)	-4%	.
COC(=O)c1c(-c2cc(OC)cc(OC)c2)sc2ccc(OC)cc12	-16%	-16%

A different layout for 3 compounds above:
Values in the order – VACV Venus inh | Vaccinia mCherry
> CC1CCCCN1CCCNC(=O)Cn1ncc2c3ccccc3n(Cc3ccccc3F)c2c1=O (stereo unspecified)
  ? | -28%
> Cc1ccnc(-n2sc3ccccc3c2=O)n1
  -4% | -9%
> N#CC1(P(=O)(c2ccccc2)c2ccccc2)CC1
  -13% | .

Next part
SMILES	VACV Venus inh	Vaccinia mCherry
CCOC(=O)N1CCC(=NNC(=O)NC2CCCCC2)CC1	-22%	-2%
CCc1ccccc1NC(=O)Cn1nc(-c2cc(C)ccc2C)c2c(c1=O)CCCC2	-13%	-13%
O=C(NCc1nc2ccccc2[nH]1)C1=C[C@H](c2csc3ccccc23)C[C@H](OCc2ccc(CO)cc2)O1	-26%	-7%
Cc1ccccc1-c1nc(CN2CCC(C(=O)NC3CC3)CC2)c(C)o1	-9%	-21%
COC(=O)/C=C1\OC(c2ccccc2)c2ccccc21 (stereo unspecified)	-13%	-14%
CC(C)(C)OC(=O)N1CCC(c2c(C(=O)NCc3ccco3)cnn2-c2ccccc2Cl)CC1	-14%	-9%
COc1ccc(C(=O)OCC(=O)c2ccc3c(c2)NC(=O)CO3)cc1S(=O)(=O)N1CCOCC1	11%	-11%

Reformatted with bars between the fields: three of the compounds above.
Structure | VACV Venus inh | Vaccinia mCherry
CCc1ccccc1NC(=O)Cn1nc(-c2cc(C)ccc2C)c2c(c1=O)CCCC2 | -13% | -13%
CC(C)(C)OC(=O)N1CCC(c2c(C(=O)NCc3ccco3)cnn2-c2ccccc2Cl)CC1 | -14% | -9%
COc1ccc(C(=O)OCC(=O)c2ccc3c(c2)NC(=O)CO3)cc1S(=O)(=O)N1CCOCC1 | 11% | -11%

Screening results as filed in PubChem BioAssay.
